KCNQ2 pot: potentiators of rat KCNQ2 potassium channel; CHO-K1 KCNQ2, FluxOR thallium flux fluorescence; hits give high values; hit rate 0.54% among 310,000; B-score at 10 µM;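 active = fluorescence ratio B-score at least 3 SD of library B-scores, with initial fluorescence B-score within 3 SD, cut at about 5.3 in these data; same plate scores as AID 2156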;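 also: B-score of peak minus minimum over baseline fluorescence ratio after K+ and Tl+ stimulus; positive B-score means potentiation of KCNQ2 with more thallium influx and brighter signal; only the inactives scoring about 0 or higher are listed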
Target sequence (O88943 whole entry, looked up): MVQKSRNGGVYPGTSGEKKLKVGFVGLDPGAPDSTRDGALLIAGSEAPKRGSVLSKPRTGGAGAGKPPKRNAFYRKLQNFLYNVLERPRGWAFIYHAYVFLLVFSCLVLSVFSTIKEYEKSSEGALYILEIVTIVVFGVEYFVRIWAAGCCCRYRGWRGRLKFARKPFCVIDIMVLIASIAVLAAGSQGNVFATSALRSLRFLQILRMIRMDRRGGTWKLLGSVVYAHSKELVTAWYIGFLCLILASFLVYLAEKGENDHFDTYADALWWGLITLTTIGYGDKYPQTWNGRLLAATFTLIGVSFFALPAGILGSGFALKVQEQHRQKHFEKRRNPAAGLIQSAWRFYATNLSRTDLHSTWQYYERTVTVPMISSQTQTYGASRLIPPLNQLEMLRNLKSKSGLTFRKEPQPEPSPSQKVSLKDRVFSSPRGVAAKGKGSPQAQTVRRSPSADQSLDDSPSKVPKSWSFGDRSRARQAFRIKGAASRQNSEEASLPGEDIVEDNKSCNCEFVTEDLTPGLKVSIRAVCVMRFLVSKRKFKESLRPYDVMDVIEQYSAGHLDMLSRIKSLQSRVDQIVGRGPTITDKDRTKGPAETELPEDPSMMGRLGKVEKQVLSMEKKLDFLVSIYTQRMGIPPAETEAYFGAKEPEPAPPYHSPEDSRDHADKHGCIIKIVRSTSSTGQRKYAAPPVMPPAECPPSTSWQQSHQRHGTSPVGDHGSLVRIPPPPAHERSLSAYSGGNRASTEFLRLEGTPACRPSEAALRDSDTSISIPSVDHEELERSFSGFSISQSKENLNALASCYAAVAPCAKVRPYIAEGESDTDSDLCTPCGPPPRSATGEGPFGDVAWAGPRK
KCNQ2 pot baseline: further read-out of KCNQ2 pot, marked with its call; B-score; compound at 10 µM; measured here: initial fluorescence intensity artifact check;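 brightness before thallium and not channel activity; 0 = typical well and far values either way flag optical interference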
Starred values were filed as active, the others as inactive.

Under each structure: KCNQ2 pot baseline	KCNQ2 pot
> COc1cc(/C=N/NC(=S)NC(C)C)ccc1OCC(=O)Nc1c(C)cc(C)cc1C
 : -0.03	1.7
> CC1=NNC(=O)C1CCC(=O)N/N=C/C=C/c1ccccc1 (stereo not given)
 : 1.1	0.85
> Cc1cc(C)cc(NC(=O)CN2CCN(C(=O)C3CCCO3)CC2)c1 (stereo not given)
 : -0.58	0.05
> Oc1cccc(/C=N/Nc2cc(N3CCOCC3)nc(N3CCOCC3)n2)c1
 : -0.94	2.2
> CC(C)CCNC(=O)CN(C(=O)Cn1nnc(-c2ccc(F)cc2)n1)C1CCCC1
 : 0.24	1.3
> O=C1c2ccccc2C(=O)N1CC1c2ccccc2CCN1S(=O)(=O)c1ccccc1 (stereo not given)
 : -0.6	0.57
> Cc1nccn1-c1ncnc2sc3c(c12)CCCC3
 : -0.64	0.44
> Fc1ccc(CNC(=S)Nc2cccc(C(F)(F)F)c2)cc1
 : -2.6	0.83
> C#CCSc1nnnn1-c1cccc(Cl)c1
 : 0.1	0.46
> COc1ccc2c(c1)[nH]c1c(=O)n(Cc3ccccn3)cnc12
 : -2.2	0.5
> O=C(Nc1cccc(C(=O)Nc2ccccc2C(=O)O)c1)c1cccc(Cl)c1
 : 0.23	0.21
> COc1ccc(-c2csc(N3CCN(S(=O)(=O)c4ccc5c(c4)NC(=O)CO5)CC3)n2)cc1
 : -0.91	0.26
> CC(C)(C)c1ccc(C(=O)N2CCC(C(=O)NC3CC3)CC2)cc1
 : -0.68	2.1
> CC(=O)c1c(C)nn(C(=O)c2cccs2)c1C
 : -0.95	0.75
> Cc1ccc(N2C(=O)c3ccc(C(=O)Nc4cccnc4)cc3C2=O)c(C)c1
 : 1.1	0.07
> Cc1cc(C)n(S(=O)(=O)c2cc(Cl)ccc2Cl)n1
 : -1.7	1.3
> C=C(C)C1CC=C(C)/C(=N/NC(=O)COc2cccc(C)c2)C1 (stereo not given)
 : -0.76	1.4
> CC(C)CN(C(=O)COC(=O)CCc1c[nH]c2ccccc12)C1CCS(=O)(=O)C1 (stereo not given)
 : -1.4	1.8
> O=C(NC1CCCCCC1)C1CCN(C(=O)c2ccc(Br)cc2)CC1
 : 0.03	0.32
> COc1cc2c(cc1OC)CN(CC(=O)Nc1ccccc1C#N)CC2
 : -0.81	0.28
> CCN1CCN(C(=S)NC(=O)/C=C/c2cccs2)CC1
 : -0.15	0.03
> CCc1c(C)c(C#N)c2nc3ccccc3n2c1Nc1c(C)n(C)n(-c2ccccc2)c1=O
 : 0.47	0.79
> O=C(NC1CCC(O)CC1)c1cccnc1Sc1ccccc1Cl (stereo not given)
 : -0.94	0.68
> COc1ccc(C(C(=O)NC2CCCC2)N(C(=O)c2ccco2)c2ccc(OC)c(OC)c2)cc1 (stereo not given)
 : 0.01	0.08
> CCOC(=O)C1=C(C)N(CCC(=O)O)C(=O)NC1c1ccccc1Cl (stereo not given)
 : -0.02	0.7
> N#Cc1c(NC(=O)c2ccc(Cn3cc(Br)cn3)o2)sc2c1CCCCCC2
 : -1.4	1.5
> Cc1ccc2c(c1)C(=O)C(=O)N2CC(=O)Nc1ccccc1NC(=O)c1ccccn1
 : 0	1.1
> N/C(=N\NC(=O)c1cccs1)c1cc2cc(Cl)ccc2oc1=O
 : -1.8	1.1
> COc1ccc(-c2cc(C(=O)Nc3c(C)n(C)n(-c4ccccc4)c3=O)no2)cc1
 : -0.01	0.48
> Nc1nnc(CCOc2ccc(Cl)cc2)s1
 : 0.39	0.18

3 compounds out of the list, ordered by length of the SMILES, smallest number first.
Under each structure: KCNQ2 pot baseline	KCNQ2 pot
> Nc1nnc(CCOc2ccc(Cl)cc2)s1
 : 0.39	0.18
> CC1=NNC(=O)C1CCC(=O)N/N=C/C=C/c1ccccc1 (stereo not given)
 : 1.1	0.85
> Cc1cc(C)cc(NC(=O)CN2CCN(C(=O)C3CCCO3)CC2)c1 (stereo not given)
 : -0.58	0.05

Remaining list, next part
Under each structure: KCNQ2 pot baseline	KCNQ2 pot
> Cc1cc(NC(=O)CSc2nc(C3CC3)nc3sc(C)c(C)c23)no1
 : -0.9	2.7
> Cc1cc(C)c2c(c1)C(=O)/C(=C/c1ccc(C(=O)O)cc1)CC2
 : -0.21	1.1
> CCOc1cc(/C=C2\C(=O)N(c3cccc(C(=O)O)c3)N=C2C(F)(F)F)ccc1OCC(=O)Nc1ccccc1OC
 : 1.1	0.33
> CC(C)CNc1nc(Oc2ccc(=O)[nH]n2)nc(N2CCOCC2)n1
 : 0.36	1.8
> CCn1c2ccccc2c2cc(NC(=O)COC(=O)c3ccccc3F)ccc21
 : -0.44	0.7
> CCCC(=O)Nc1ccc(C2C(=O)c3ccccc3C2=O)cc1
 : 0.3	0.57
> O=c1[nH]c(SCc2ccccc2Cl)nc2c1cnn2-c1ccccc1
 : 0.85	0.02
> C=CCCC(=O)N1CCC(n2nccc2NC(=O)c2ccccc2C)CC1
 : 0.94	0.73
> CCOCCCn1c(SCC(=O)Nc2cccc(S(=O)(=O)NC3=NCCCCC3)c2)nc2ccccc2c1=O
 : -0.69	1.1
> O=c1c(-c2ccc(O)cc2O)coc2cc(O)cc(O)c12
 : -1	0.55
> Cc1ccc(NC(=O)c2ccc([N+](=O)[O-])o2)cc1C
 : -0.88	3
> c1ccc(Nc2c3c(nc4ccccc24)CCC3)cc1
 : 0.07	1.1
> CCOC(=O)c1c(NC(=O)COC(=O)c2cnc(C)cn2)sc(C(=O)N(C)C)c1C
 : 0.96	1.4
> O=C(COc1ccc(Cl)cc1Cl)N/N=C/c1cccnc1
 : -1.8	1.3
> O=C(Nc1ccncc1)c1ccc(C(=O)Nc2ccncc2)cc1
 : -0.42	1.5

A portion from the list above:
Under each structure: KCNQ2 pot baseline	KCNQ2 pot
> CCOC(=O)C1=C(C)N(CCC(=O)O)C(=O)NC1c1ccccc1Cl (stereo not given)
 : -0.02	0.7
> N#Cc1c(NC(=O)c2ccc(Cn3cc(Br)cn3)o2)sc2c1CCCCCC2
 : -1.4	1.5
> Cc1ccc2c(c1)C(=O)C(=O)N2CC(=O)Nc1ccccc1NC(=O)c1ccccn1
 : 0	1.1

Going on with the list:
Under each structure: KCNQ2 pot baseline	KCNQ2 pot
> COc1ccc(NC(=O)C(F)(OC)C(F)(F)F)c(OC)c1 (stereo not given)
 : -0.41	0.09
> CCc1nnc(NC(=O)CSc2nc(C)cs2)s1
 : 0.4	0.08
> CCNC(=O)NC(=O)COC(=O)CCCSc1nc2ccccc2s1
 : -1.3	1.9
> C=CCOC(=O)C1=C[C@H](c2cn(C(C)=O)c3ccccc23)C[C@H](OCCCCO)O1
 : -1.1	1.7
> O=C(CCc1ccccc1)N/N=C\C1CC=CCC1 (stereo not given)
 : 0.05	0.96
> CCN(CC)c1ccc(/C=N/NC(=O)c2cccc(S(=O)(=O)N3CCOCC3)c2)c(O)c1
 : 1.3	0.02
> CN1C=CC=C/C1=C1/SC(=S)N(Cc2ccccc2)C1=O
 : 0.47	0.67
> O=C1NCCN1Cc1cccc(Cl)c1
 : -0.14	0.01
> CCN(CC)S(=O)(=O)c1ccc2c(c1)N(CC(=O)NCC1CCCO1)C(=O)CO2 (stereo not given)
 : 1.2	0.01
> CC(=O)c1ccc(NC(=O)C2CCCN(C(=O)c3ccc(Cl)cc3)C2)cc1 (stereo not given)
 : 1	1.2
> O=S(=O)(c1ccc(Cl)cc1)c1ccccn1
 : 0.73	0.84
> COc1cc(S(=O)(=O)N2CCN(C(=O)c3ccccc3F)CC2)c(OC)cc1NC(C)=O
 : -0.02	2.2
> COc1ccccc1N1CCN(Cc2ccc(OC)c3ccccc23)CC1
 : 3	1.5
> O=C(CSc1n[nH]c(-c2ccco2)n1)N1c2ccccc2Sc2ccccc21
 : -2.1	0.37
> COc1ccccc1NC(=O)Cn1c2ccccc2c2nc3n(c(=O)c21)CCS3
 : -0.93	1.1
> COc1cc(Cl)c(NS(=O)(=O)c2ccc(-c3ccc(=O)[nH]n3)o2)c(OC)c1
 : -0.56	1.1
> O=C(Nc1ccc2c(c1)OCCO2)c1ccc(Br)cc1
 : -0.2	1.4
> O=C1N/C(=N\N=C\c2ccccn2)SC1Cc1cccc(SC(F)F)c1 (stereo not given)
 : -0.57	0.59
> COc1ccc(CC(=O)Nc2ccc(S(=O)(=O)Nc3nccs3)cc2)cc1
 : -0.33	0.22
> CC(C)N1C(=O)CC(Nc2ccc(N3CCOCC3)cc2)C1=O (stereo not given)
 : 0.62	0.05
> COc1ccccc1CNC(=O)COc1cccc(-n2cnnn2)c1
 : 0.11	1.1
> O=C(Nc1ccccc1)/C(=C/c1ccc([N+](=O)[O-])cc1)NC(=O)c1ccco1
 : -0.02	0.17
> Cc1nc(SCc2ccc(C(=O)O)cc2)c2c(C)c(C)sc2n1
 : -0.1	4
> COc1ccc(/C=C2/C(=O)N=C3SCCN32)cc1
 : -2.4	0.04
> COc1ccc(-c2ccc3oc(-c4ccc(OC)cc4)c(-c4cc(OC)c(OC)c(OC)c4)c3c2)cc1
 : 0	0.75
> Cc1cc(C(=O)N2CCCC(N3CCN(c4cccc(Cl)c4)CC3)C2)no1 (stereo not given)
 : -0.68	0.12
> CCn1c(C(=O)O)c(CC(=O)Nc2cccc(C(F)(F)F)c2)c2ccccc21
 : -0.72	0.59
> CS(=O)(=O)c1ccccc1-c1nnc(NC(=O)c2cccc(N3C(=O)CCC3=O)c2)o1
 : -0.96	0.16
> COCCNC(=O)/C(C#N)=C/c1ccc(OCC(=O)NC2CCCCC2)cc1
 : -0.45	0.25
> Cc1nc2ccccn2c1/C(O)=C1\C(=O)C(=O)N(CCN2CCOCC2)C1c1cccs1 (stereo not given)
 : -0.01	0.18
> O=C(Oc1ccc(-c2ccccc2)cc1)N1CCCCC1
 : 0.26	0.01
> CCN1CCN(C(c2cccs2)C(C)NC(=O)c2cccc(OC)c2OC)CC1 (stereo not given)
 : -2.5	0.72
> CCCCOc1ccc(C(=O)N(C)CC(=O)Nc2ccc(C)cc2)cc1
 : 0.06	0.43
> Cc1cc(OCCN2CCOCC2)ccc1[N+](=O)[O-]
 : -1.1	1.1
> Cc1noc(C)c1S(=O)(=O)N(C)CC(=O)NCc1ccccc1
 : -0.11	0.42
> O=C(Cn1ncn2c(cc3sccc32)c1=O)NC1CCCC1
 : -0.09	0.04
> COc1ccc(-c2cc(=O)n(-c3ccc([N+](=O)[O-])cc3)[nH]2)cc1
 : -1.9	1.9
> COC(=O)Cc1c(C)nc2nc(NCc3c(F)cccc3Cl)[nH]n2c1=O
 : -0.31	0.04
> Nc1c(Cl)ncnc1NCCc1ccc(O)cc1
 : -0.97	2.2
> COc1cc(/C=C(\C#N)c2nc3ccccc3[nH]2)cc(Br)c1OCc1ccccc1
 : 0.19	0.03
> COc1ccc(OCCCc2c(C)n[nH]c2C)cc1
 : 0.54	0.08
> N#Cc1c(Nc2ccccc2)c(/C=N/N=C/c2ccccc2)c[nH]c1=O
 : -0.23	1.1
> CCOC(=O)c1nc(C)sc1-c1ccnn1S(=O)(=O)c1ccccc1C(F)(F)F
 : 0.12	0.02
> CCC(=O)NC(=S)Nc1ccc(NC(=O)c2ccc(Br)o2)cc1
 : -1.9	0.61
> C#Cc1ccc([C@H]2C=C(C(=O)NCc3ccccc3)O[C@@H](OCC)[C@@H]2CCCO)cc1
 : 1.6	0.52
> CNC(=O)c1ccc(S(=O)(=O)c2ccc(Cl)cc2)c(NC(C)=O)c1
 : 0.59	0.02
> Cc1ccc(S(=O)(=O)Nc2cc(C)on2)cc1
 : 0.56	0.29
> O=C(c1ccccc1)c1ccc2c(c1)OCCOCCOCCOCCO2
 : 0.14	0.06
> Cc1ccc2oc(=O)n(CCOc3ccccc3Cl)c2c1
 : 1	0.26
> CCC(=O)N(CC)c1nc(-c2ccc(OC)cc2)cs1
 : 0.21	2.6
> O=c1c2c(nc3cc(-c4ccccc4)[nH]n13)CCS2
 : 1	0.61
> COC(=O)c1ccc2c(=O)n(CCCCCC(=O)NC(C)C)c(=O)[nH]c2c1
 : -1.2	1.9
> Cc1csc(SCC(=O)N(C)CC(=O)Nc2ccc(F)cc2)n1
 : 1	0.27
> Cc1cccc2sc(NNC(=O)c3cc(-c4cccs4)nc4ccccc34)nc12
 : -0.43	0.16
> Nc1n[nH]c(N)c1N=Nc1ccc(Cl)cc1Cl
 : -0.01	0.03
> O=C(COC(=O)c1ccc(=O)n(Cc2ccccc2)n1)Nc1ccc2c(c1)OCCO2
 : -0.11	0.62
> CCN1CCc2c(C#N)c(N3CCOCC3)nc(NCCO)c2C1
 : -0.98	0.25
> CN(C)CCCOc1cccc(Oc2ccccc2)c1
 : -0.85	1.8
> CCCc1nc2ccccc2c(=O)n1CC(=O)c1ccc(F)cc1
 : -0.07	0.73
> COC(=O)c1sc2ncccc2c1OCc1ccccc1Cl
 : -0.01	0.07

The listing continues.
Under each structure: KCNQ2 pot baseline	KCNQ2 pot
> CCOC(=O)c1c(S(=O)(=O)NCC(=O)NCc2cccc(C)c2)c(C)n(C)c1C
 : 1.5	1.1
> C=CCN1CCN(C(=O)CCc2ccccc2)CC1
 : -1.1	0.35
> Cc1ccc(-n2c(CC#N)n[nH]c2=S)c(C)c1
 : -0.54	0.46
> C=CCN(C(=O)CNC(=O)c1ccco1)C(C(=O)NC1CCCC1)c1cccs1 (stereo not given)
 : -0.96	0.78
> C=CC(=C)CC(NC)c1ccccc1 (stereo not given)
 : -0.07	0.43
> O=C(c1ccncc1)N1CCCC(N2CCN(c3cccc(C(F)(F)F)c3)CC2)C1 (stereo not given)
 : 1.4	0.23
> CCCNC(=O)COC(=O)/C=C/c1ccc2c(c1)OCO2
 : 0.14	0.38
> CCOc1ccc(CCNC(=O)c2ccc(C)c(NC3=NC4CS(=O)(=O)CC4S3)c2)cc1 (stereo not given)
 : 2	0.66
> O=C(CCc1ccc(S(=O)(=O)N2CCOCC2)cc1)NCCCN1CCCC1=O
 : -1.2	1.1
> CCOc1ccc(NC(=O)C2CCC(N3C(=O)C4CC=CCC4C3=O)CC2)cc1 (stereo not given)
 : -0.23	1
> C#CCSc1nc(-c2ccccc2)cc(C(F)(F)F)c1C#N
 : -0.6	1.1
> CC(C)c1nnc(NC(=O)c2ccc3c(c2)OCO3)s1
 : 2.1	0.67

Source: PubChem BioAssay (Johns Hopkins Ion Channel Center)

The list is partial; the hit share may differ from the screen's.
